Screens deposited in PubChem by Johns Hopkins Ion Channel Center.
KCNQ2 enhance: potentiators of rat KCNQ2 potassium channel; AID 2239; CHO-K1 KCNQ2, FluxOR thallium flux fluorescence; stronger effect = higher value; actives 0.54% (n = 310,000); B-score at 10 µM;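 active = fluorescence ratio B-score at least 3 SD of library B-scores, with initial fluorescence B-score within 3 SD, cut at about 5.3 in these data; same plate scores as AID 2156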;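 also: B-score of peak minus minimum over baseline fluorescence ratio after K+ and Tl+ stimulus; positive B-score means potentiation of KCNQ2 with more thallium influx and brighter signal; only the inactives scoring about 0 or higher are listed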
Target sequence (O88943 whole entry, looked up): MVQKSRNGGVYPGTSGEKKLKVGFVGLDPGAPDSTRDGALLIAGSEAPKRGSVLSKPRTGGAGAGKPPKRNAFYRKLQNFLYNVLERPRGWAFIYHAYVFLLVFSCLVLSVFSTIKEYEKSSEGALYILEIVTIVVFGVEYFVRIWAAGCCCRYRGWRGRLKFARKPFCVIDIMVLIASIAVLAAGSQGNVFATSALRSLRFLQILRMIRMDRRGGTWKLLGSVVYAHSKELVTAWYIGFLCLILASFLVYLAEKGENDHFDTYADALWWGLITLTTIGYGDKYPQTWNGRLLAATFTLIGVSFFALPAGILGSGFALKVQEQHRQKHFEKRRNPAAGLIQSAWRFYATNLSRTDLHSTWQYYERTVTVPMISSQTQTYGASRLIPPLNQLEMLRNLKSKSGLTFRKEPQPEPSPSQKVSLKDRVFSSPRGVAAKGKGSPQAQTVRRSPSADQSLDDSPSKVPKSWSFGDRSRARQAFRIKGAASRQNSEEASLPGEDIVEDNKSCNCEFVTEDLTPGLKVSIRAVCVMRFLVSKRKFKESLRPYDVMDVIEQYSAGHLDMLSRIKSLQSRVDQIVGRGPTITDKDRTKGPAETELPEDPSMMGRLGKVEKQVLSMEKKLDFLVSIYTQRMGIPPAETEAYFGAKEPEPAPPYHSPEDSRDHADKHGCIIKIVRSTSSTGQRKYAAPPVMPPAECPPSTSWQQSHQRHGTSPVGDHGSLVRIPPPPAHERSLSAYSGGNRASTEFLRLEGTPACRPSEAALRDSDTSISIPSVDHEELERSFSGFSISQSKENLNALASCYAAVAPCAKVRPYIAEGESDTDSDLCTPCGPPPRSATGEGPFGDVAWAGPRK
KCNQ2 enhance baseline: further read-out of KCNQ2 enhance, marked with its call; B-score; compound at 10 µM; measured here: initial fluorescence intensity artifact check;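 brightness before thallium and not channel activity; 0 = typical well and far values either way flag optical interference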
* hit, by the source's call.

Results follow in this order: KCNQ2 enhance baseline, KCNQ2 enhance
COc1ccc(Cn2c(C(F)(F)F)ccc(C(N)=O)c2=O)cc1
→ 1.4, 0.11
O=C(CNS(=O)(=O)c1ccccc1)OCC(=O)c1ccc([N+](=O)[O-])cc1
→ 0.13, 0.04
CC(C)(C)NC(=O)CSc1nnc(SCC(=O)NC(C)(C)C)s1
→ -0.54, 0.13
Cc1ccc(N2CC(NC(=O)C(=O)c3c[nH]c4ccccc34)CC2=O)cc1C (stereo not given)
→ -0.25, 2
Nc1nc2n(n1)C(c1cccs1)CC(c1ccc(Br)cc1)N2 (stereo not given)
→ 0.5, 1.4
Oc1cccc(Nc2nc(N3CCOCC3)nc(N3CCOCC3)n2)c1
→ -0.48, 1.8
O=C(CSc1nc2nc(-c3cccs3)cc(C(F)(F)F)c2c(=O)[nH]1)Nc1ccc(F)c(F)c1
→ -1.4, 1.3
COc1ccc(CNC(=O)Nc2ccc(C)c(C)c2)cc1
→ 0.67, 2.6
Cc1ccc(S(=O)(=O)N(CCCO)Cc2cc3c(C)ccc(C)c3[nH]c2=O)cc1
→ -0.26, 1.1
CN(CC(=O)Nc1ccc(Cl)c(C(F)(F)F)c1)C(=O)c1ccc2c(c1)OCCO2
→ -0.15, 1.9
Cc1ccc(C(=O)N/C(=C\c2ccco2)C(=O)NCCCn2ccnc2)cc1
→ -1.4, 0.48
CC1(c2ccccc2)NC(=O)N(NC(=O)COC(=O)c2cc(Br)ccc2O)C1=O (stereo not given)
→ -1.1, 1.7
O=C1CCCC(=O)C1Sc1ccc(Cl)cc1
→ -0.32, 0.3
Cc1ccccc1N1CCN(CCCCN2C(=O)C3CCCN3C2=O)CC1 (stereo not given)
→ -1.7, 0.71
Cc1cc(NC(=O)COC(=O)c2oc3c(ccc4ccccc43)c2C)no1
→ 0.06, 1.5
CCOC(=O)c1sc(C)c2c(=O)n(CCCN3CCOCC3)cnc12
→ -0.13, 1.5
O=S(=O)(NCC1CCCO1)c1ccc(S(=O)(=O)N(Cc2ccccc2F)C2CCCCC2)cc1 (stereo not given)
→ -0.81, 1.1
CCn1c(CSc2nc(C)cc(C)n2)nnc1SCC(=O)N1CCCc2ccccc21
→ 0.74, 0.98
CC(C)(C)c1ccc(-c2noc(CCC(=O)Nc3cccnc3)n2)cc1
→ -2, 0.34
Nc1nnnn1CC(=O)N/N=C/C=C/c1ccccc1
→ -0.56, 2.1
CCn1c(SCC(=O)c2ccc(OC)cc2)nnc1C1CC1
→ 1, 0.67
COc1ccccc1N1CCN(C(=O)c2sc3nc4n(c(=O)c3c2C)CCC4)CC1
→ -1.5, 1.1
CC(=O)N1CCN(CC(=O)Nc2ccc3c(c2)CCC3)CC1
→ 0.7, 0.4
N/C(=N\OC(=O)N1CCOCC1)c1ccc(Br)cc1
→ 1.2, 1.3
COc1ccc(OCC(=O)N(Cc2ccco2)C2CCS(=O)(=O)C2)cc1 (stereo not given)
→ 1.1, 0.17
COc1ccc(N2CC(C(=O)Nc3nnc(SCC(=O)NCc4ccco4)s3)CC2=O)cc1 (stereo not given)
→ -1.2, 0.72
COc1ccc([C@@H]2[C@@H]3C(=O)N(C(C)(C)C)C(=O)[C@@H]3[C@]3(C)C(=O)N(c4cccc(Br)c4)C(=O)N23)cc1
→ -0.03, 1.8
O=C(N/N=C/C=C\c1ccccc1[N+](=O)[O-])c1cccnc1
→ 0, 1.1
COc1ccc2nc(Cl)c(C3CC(c4ccco4)=NN3C(=O)CCC(=O)O)cc2c1 (stereo not given)
→ -0.94, 0.05
COc1cccc(C(=O)NNC(=O)C(=O)N2CCCCC2)c1
→ -1.7, 0.52
Cc1nn(CCCC(=O)NCCCN2CCN(C)CC2)c(=O)c2c1sc1ccccc12
→ -0.49, 0.97
COc1ccccc1OCCCOc1cccc(/C=C2\SC(=O)NC2=O)c1
→ 0.58, 0.82
COc1ccc(OCC(O)CNC(=O)c2cccs2)cc1 (stereo not given)
→ -1.1, 0.02
Cc1nn2c(-c3ccccn3)ccnc2c1Br
→ -1.6, 0.04
CC(C)CNC(=S)NNC(=O)c1ccc2c(c1)OCO2
→ -1.9, 1.1
COc1ccc(CCN2C(=O)CC(Cc3ccccc3)C2=O)cc1OC (stereo not given)
→ 0.44, 0.4
Cc1ccc(-c2nc3ncccc3o2)cc1NC(=O)c1sc2ccccc2c1Cl
→ 0, 1.6
Cc1nc2ccccc2nc1OCc1cccc([N+](=O)[O-])c1
→ -0.45, 1.3
CC1CCCCN1C(=O)CSc1nnc(-c2cccs2)o1 (stereo not given)
→ 1.5, 0.87
CCOC(=O)C1=C(C)NC2=C(C(=O)CCC2)C1c1ccc(N(C)C)cc1 (stereo not given)
→ -2.1, 4.4
CCCN(C#N)c1nc(NCC)nc(NC(C)C)n1
→ -0.88, 1.2
CN(C)Cc1ccc(CNC(=O)COc2ccc3ccccc3c2)cc1
→ 1.4, 0.42
COc1cc(/C=C/C(=O)O)cc(S(=O)(=O)N(C)CCO)c1OC
→ 0.1, 0.83
CSc1ccccc1NC(=O)CN(C)S(=O)(=O)c1ccc(F)cc1
→ 0, 0.3
CCOC(=O)N1CCN(C(=O)c2ccc3c(=O)n(CCC4=CCCCC4)c(=O)[nH]c3c2)CC1
→ -0.15, 0.49
NC(=O)C1CCN(C(=O)NC2CC(=O)N(c3ccc4c(c3)OCCO4)C2)CC1 (stereo not given)
→ 0.67, 0.18
Cc1ccccc1NS(=O)(=O)c1c(C(=O)N2CCCCCC2)c(C)n(C)c1C
→ -0.67, 0.2
COc1ccc(/C=N/Nc2ccccc2C(=O)O)cc1
→ -0.18, 1
CC(C)NC(=S)NN=C1c2ccccc2-c2ccccc21
→ 1.6, 2.2
CCOC(=O)C1(CCOc2ccccc2)CCN(CC2CC2)CC1
→ 1.5, 1
CCCCOc1ccc(CONS(=O)(=O)c2ccc(NC(C)=O)cc2)cc1Cl
→ 0.01, 0.11
C=CCNCC#CCOc1ccc(OC)cc1
→ 0.49, 0.27
Cn1ccc(C(=O)N/N=C/c2ccncc2)n1
→ 1.4, 0.27
CC1SC(=NC(=O)c2ccco2)NC1=O (stereo not given)
→ 0.06, 1.4
CCN(CC)C(=O)Cn1cc(C(=O)C(=O)N2CC=C(c3ccccc3)CC2)c2ccccc21
→ -2.4, 0.38
COc1ccc2nc(C)cc(N3CCN(c4ccccc4)CC3)c2c1
→ -1.1, 0.08
CC(=O)c1cccc(NC(=O)c2ccc(NC(=O)CCS(=O)(=O)c3cccs3)cc2)c1
→ 0.76, 0.73
COc1cc(/C(C)=N/N2CCN(Cc3ccc(C)cc3)CC2)ccc1O
→ -1.2, 0.04
CSc1nsc(SCC(=O)Nc2c(C)n(C)n(-c3ccccc3)c2=O)n1
→ 2.3, 0.04
CC1CCCC(n2cnc3cc(C(=O)O)ccc32)C1C (stereo not given)
→ 0.03, 0.84

Of the compounds above, three have a nitro group on carbon:
Results follow in this order: KCNQ2 enhance baseline, KCNQ2 enhance
O=C(CNS(=O)(=O)c1ccccc1)OCC(=O)c1ccc([N+](=O)[O-])cc1
→ 0.13, 0.04
O=C(N/N=C/C=C\c1ccccc1[N+](=O)[O-])c1cccnc1
→ 0, 1.1
Cc1nc2ccccc2nc1OCc1cccc([N+](=O)[O-])c1
→ -0.45, 1.3

More compounds follow.
Results follow in this order: KCNQ2 enhance baseline, KCNQ2 enhance
CCOc1ccc(NC(=O)C2CCN(S(=O)(=O)c3c(C)n[nH]c3C)CC2)cc1
→ -1.7, 0.99
CCOC(=O)C1(Cc2ccc(Cl)cc2)CCN(C(=O)c2cnc(C)cn2)CC1
→ -0.54, 0.44
Cc1cccc(N2CCN(C3=NC(=O)C(Cc4ccccc4)S3)CC2)c1 (stereo not given)
→ 0.33, 1.2
CCOC(=O)N1CCC(NC(=O)C2CCN(S(=O)(=O)c3ccc4c(c3)oc(=O)n4C)CC2)CC1
→ 1.6, 0.05
O=C(COc1ccc(S(=O)(=O)N2CCOCC2)cc1Cl)NC1CC1
→ 2, 0.53
CCN(CC)c1ccc(/C=N/NC(=O)CNC(=O)c2ccc3c(c2)OCCO3)cc1
→ -1.1, 0.41
Cc1ccc(NC(=O)CSc2nnc(CNC(=O)c3c(F)cccc3Cl)o2)cc1
→ -0.28, 0.06
CCOC(=O)C(Cc1c(F)cccc1F)(NC(C)=O)C(=O)OCC
→ -0.07, 1.1
O=C(c1ccccc1)c1ccc(Oc2ncccn2)cc1
→ -1, 0.88
Cc1ccc(N2C(=O)CN(Cc3sccc3C)C2=S)cc1C
→ -1.8, 0.67
Cc1cc(C)c2cc(CN(Cc3cccs3)Cc3nnnn3CC3CCCO3)c(=O)[nH]c2c1 (stereo not given)
→ -0.95, 0.03
Cc1ccc(NC(=O)COC(=O)CCc2ccc(S(=O)(=O)N3CCOCC3)cc2)cc1F
→ 0.01, 0.05
Cc1ccc(NC(=O)CSc2nn3c(=O)c(C)nnc3s2)cc1Cl
→ -0.97, 0.03
COc1nc(N/N=C/c2ccc(-c3cccc([N+](=O)[O-])c3)o2)nc(N2CCOCC2)n1
→ 0.68, 1.5
COc1cc(CCC(=O)OCC(=O)Nc2ncc(Cl)cc2Cl)cc(OC)c1OC
→ -0.02, 0.12
COc1cccc(C2C(C#N)=C(N)N(N(C)C)C3=C2C(=O)CC(C)(C)C3)c1 (stereo not given)
→ -0.01, 1.2
CC12CCC(=O)C=C1CCC1C2C(O)CC2(C)C1CCC2(O)C(=O)CO (stereo not given)
→ 1.2, 0.01
CC(=O)N1CC=CC1(CC(C)C)C(=O)NCc1cc(F)cc(C(F)(F)F)c1 (stereo not given)
→ 0.52, 0.57
COc1ccc(NC(=O)CN2CCN(C(=S)NC3CCCC3)CC2)cc1
→ -0.93, 0.05
O=C(CCN1CCN(Cc2ccccc2)CC1)NNC(=O)Nc1cccc(Cl)c1
→ 1.1, 2.2
CCOC(=O)c1c(NC(=O)c2cccnc2)sc(C)c1C
→ -0.57, 1.4
CC1CN(C(=O)c2cccc(C(=O)N3CC(C)OC(C)C3)c2)CC(C)O1 (stereo not given)
→ -0.77, 1.8
CC(C)N(CCCNC(=O)Cn1c(=O)c2cccn2c2ccccc21)Cc1ccccc1
→ 1.7, 0.11
O=S(=O)(/N=C(/Nc1ccccn1)c1ccc(Cl)cc1)c1ccc(Cl)cc1
→ 0.9, 0.58
COc1ccc(NS(=O)(=O)c2cc3c(cc2C)N(C)CCO3)c(OC)c1
→ -1.4, 2
O=Nc1c2ccc[nH]c-2c2ccc([N+](=O)[O-])cc12
→ 1, 0.44
CCc1c(C)[nH]c2ccc(C)cc2c1=O
→ 0.64, 0.6
Cc1ccc(CNC(=O)CN(c2ccc(C)cc2)S(=O)(=O)c2c(C)nn(C)c2C)cc1
→ -0.65, 1.1
CCOc1ccc(C(=O)CCNC(Cc2cnc[nH]2)C(=O)O)cc1 (stereo not given)
→ 0.06, 0.08
Cc1sc(NC(=O)C2=COCCO2)nc1-c1ccc(F)cc1
→ -4.5, 0.42
COC(=O)c1c(NC(=S)NN2CCOCC2)sc2c1CCCC2
→ 0.84, 0.38
O=C(CNC(=O)c1ccc(Oc2ccccc2)cc1)OCc1ccc(Br)cc1
→ 1.4, 1.3
CCn1c2ccccc2c2nnc(SCC(=O)Nc3cc(C)on3)nc21
→ -1.2, 0.16
COc1cc(OC)cc(C(=O)NCCNC(=O)c2ccco2)c1
→ -0.21, 1.8
CC1=CC(c2ccccc2)n2nc(N)nc2N1 (stereo not given)
→ 0.06, 0.62
CC(C(=O)O)c1ccc(N2Cc3ccccc3C2=O)cc1 (stereo not given)
→ -1, 0.02
CN(C(=O)COC(=O)/C=C/c1cn(-c2ccccc2)nc1-c1ccc2c(c1)OCCO2)C1CCS(=O)(=O)C1 (stereo not given)
→ -0.92, 0.07
COc1ccc(-n2nnnc2SCC(=O)c2ccc3c(c2)OCCO3)cc1
→ 0.65, 1.1
CCc1ccc(-c2csc(NC(=O)Oc3ccccc3)n2)cc1
→ 0.22, 0.84
CCCCc1nc2cc(C(=O)N3CCCCC3COC)ccc2o1 (stereo not given)
→ 1.2, 0.88
Cc1cc(C(F)(F)F)nn1Cc1n[nH]c(=S)n1-c1ccc(Cl)cc1
→ -0.09, 0.05
Cc1cccc(CSc2nc3nc(C)cc(C)n3n2)c1
→ -1.6, 1.5
COc1ccc(C2NC(=S)NC(O)(C(F)(F)F)C2C(=O)c2cccs2)cc1 (stereo not given)
→ -0.93, 0.75
COc1c(C(=O)NNC(=O)c2ccccc2)csc1Br
→ -0.35, 0.84
C=CCn1c(SCC(=O)c2c(N)n(C)c(=O)n(C)c2=O)nc2sc(C)c(C)c2c1=O
→ 0, 0.79
O=C(CCCc1ccccc1)NCc1ccc(F)cc1
→ -1.2, 0.24
Cn1c(=O)n(C)c2cc(/C=N/NC(N)=S)ccc21
→ -0.88, 0.26
CCOc1ccc(NC(=O)CN(C)C(=O)c2cccnc2Sc2ccc(C)c(C)c2)cc1OCC
→ -0.06, 1.5
O=C(CCCN1C(=O)c2ccccc2C1=O)Nc1ccccc1C(=O)N1CCOCC1
→ 0.06, 0.75
O=[N+]([O-])c1ccc(Cl)c(S(=O)(=O)Nc2cccc(-c3ccc(N4CCOCC4)nn3)c2)c1
→ -1.5, 3.4
COc1ccc(CCn2c(S)nc3ccccc3c2=O)cc1
→ 1.4, 2.6
O=C1N=C(N2CCN(c3ccccc3)CC2)S/C1=C\c1cn[nH]c1-c1ccccc1
→ 1.9, 1.6
COc1ccc(CN2CC(=O)N(c3ccc(C)cc3)C2=S)cc1OC
→ -1.7, 1.6
Cc1ccc(C(=O)Nc2cccc(NC(=O)c3ccc(C)o3)n2)o1
→ -0.44, 1.9

4 structures from above, ordered by SMILES length, lowest first.
Results follow in this order: KCNQ2 enhance baseline, KCNQ2 enhance
COc1ccc(CCn2c(S)nc3ccccc3c2=O)cc1
→ 1.4, 2.6
COC(=O)c1c(NC(=S)NN2CCOCC2)sc2c1CCCC2
→ 0.84, 0.38
COc1ccc(C2NC(=S)NC(O)(C(F)(F)F)C2C(=O)c2cccs2)cc1 (stereo not given)
→ -0.93, 0.75
O=C1N=C(N2CCN(c3ccccc3)CC2)S/C1=C\c1cn[nH]c1-c1ccccc1
→ 1.9, 1.6

An excerpt; rates above refer to the full screens.
